# Compound activity (PubChem)
# INS promoter inh – TRM-6 insulin promoter activity inhibition. TRM-6 cells (human fetal islet line), insulin promoter-eGFP reporter, imaging; reporter expression induced with tamoxifen. inhibition, % at 2 µM. actives 0.9% (n = 130,000). AID 1273;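 active = inhibition above the mean plus 3 SD, with well images judged a real hit on visual review, cut at about 60% in these data, passing the limit was not always enough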
# HSV augment – HSV replication enhancement; HSV replication augmentation in cells, fold increase; maximum fold increase; actives 0.005% (n = 220,000); AID 1956;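 active = peak rise of 1.5-fold or more in the series; tested in PC3 cells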;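 also: first round at 10 µM; read as green reporter fluorescence; hits show the peak of a series up to 25 µM; 1 = signal of infected wells without compound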
# PKD1 kinase inh – blocks activity of human protein kinase D1. Q15139. PKD1 kinase fluorescence polarization assay. inhibition, %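 (about 10 µM by stock and volumes)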. actives 0.056% (n = 200,000). AID 797;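 active = inhibition of 50% or more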;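 also: controls were vehicle for no effect and a reference inhibitor for full effect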
# Target sequence (Q15139 whole entry, looked up): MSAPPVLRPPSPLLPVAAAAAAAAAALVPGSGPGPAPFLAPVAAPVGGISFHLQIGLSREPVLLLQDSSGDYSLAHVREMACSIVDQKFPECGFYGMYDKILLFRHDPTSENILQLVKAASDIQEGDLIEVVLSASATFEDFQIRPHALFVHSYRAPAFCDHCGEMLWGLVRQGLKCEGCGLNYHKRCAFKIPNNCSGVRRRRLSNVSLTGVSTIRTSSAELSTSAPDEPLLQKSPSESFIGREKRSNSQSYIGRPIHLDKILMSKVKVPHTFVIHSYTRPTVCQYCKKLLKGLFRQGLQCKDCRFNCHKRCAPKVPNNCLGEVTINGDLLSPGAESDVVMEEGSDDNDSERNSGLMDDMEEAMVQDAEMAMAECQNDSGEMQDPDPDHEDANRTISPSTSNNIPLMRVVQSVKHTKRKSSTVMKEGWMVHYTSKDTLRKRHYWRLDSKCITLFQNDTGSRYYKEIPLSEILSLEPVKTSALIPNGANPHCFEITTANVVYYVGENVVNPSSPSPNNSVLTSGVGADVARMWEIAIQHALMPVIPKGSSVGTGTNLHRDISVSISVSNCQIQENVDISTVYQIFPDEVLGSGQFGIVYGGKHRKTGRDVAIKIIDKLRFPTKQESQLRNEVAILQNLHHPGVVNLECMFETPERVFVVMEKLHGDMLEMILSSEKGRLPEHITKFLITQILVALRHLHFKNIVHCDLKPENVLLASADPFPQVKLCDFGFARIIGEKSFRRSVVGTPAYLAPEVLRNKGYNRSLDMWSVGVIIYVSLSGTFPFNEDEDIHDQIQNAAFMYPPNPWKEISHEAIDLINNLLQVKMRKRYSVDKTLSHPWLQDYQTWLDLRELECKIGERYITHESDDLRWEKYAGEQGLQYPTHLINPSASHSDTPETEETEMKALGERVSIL
# RGS16-Gao – modulates binding between human RGS16 and Galphao; O15492+P09471; bead-based flow cytometry RGS16-Galphao binding, fluorescence; actives lie on both sides; binding response (% of control), % at 10 µM; actives 0.38% (n = 220,000);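 active = below 25% or above 175%, edge rows of some plates excepted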;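 also: Galphao activated by GDP with aluminum fluoride before binding; 100% = wells without compound and 0% = beads without RGS; some results beyond the cut were filed as inactive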
# GALR2 agonist – agonists of human galanin receptor 2 (GALR2). activation, %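 (tested at 5 µM)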. actives 0.48% (n = 140,000). O43603. GALR2-expressing cells, agonist activation read-out. AID 803;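 active = above mean plus 3 SD of all compounds, about 5% in these data, not always enough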;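 also: 0% = vehicle buffer wells and 100% = reference agonist at full effect; tested in CHO reporter cells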
# INS promoter inh cell count – second read-out of INS promoter inh, no call of its own (marks repeat the call); normalized cell count, %; measured here: cell count, toxicity; reference of the scale not given here;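 cells exposed to compound for 48 h; stained nuclei by imaging scaled within each plate; lower means fewer cells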
# HSV augment primary fold – also measured in HSV augment; calls as there; fold increase; compound at 10 µM; measured here: primary screen fold increase 10 uM; tested in PC3 cells;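 GFP signal in the first replicate; 1 = infected wells without compound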
# An asterisk follows results filed as active; i = inactive; nt = not tested or not shown.
# Start of the data: the first two entries, to show the layout:
SMILES,INS promoter inh,INS promoter inh cell count,HSV augment,HSV augment primary fold,PKD1 kinase inh,RGS16-Gao,GALR2 agonist
Cc1sc2ncnc(NCC3(N4CCOCC4)CCCCC3)c2c1C,26,113,i,1,5,96,-2.8
CC(=O)Nc1ccc(NC(=O)Nc2cc(C)cc(C)c2)cc1,nt,nt,i,1,nt,94,nt

# Results (from the top)
SMILES,INS promoter inh,INS promoter inh cell count,HSV augment,HSV augment primary fold,PKD1 kinase inh,RGS16-Gao,GALR2 agonist
Cc1sc2ncnc(NCC3(N4CCOCC4)CCCCC3)c2c1C,26,113,i,1,5,96,-2.8
CC(=O)Nc1ccc(NC(=O)Nc2cc(C)cc(C)c2)cc1,nt,nt,i,1,nt,94,nt
CCOC(=O)N1CCC(NC(=O)c2ccc3c(c2)N(Cc2ccc(F)cc2)CCS3)CC1,nt,nt,i,0.85,2,103,0.4
CC(=O)c1ccc(OC(=O)N(c2ccccc2)c2ccccc2)cc1,9,22,i,0.94,1,98,-4.2
CCOC(=O)c1cc2cc([N+](=O)[O-])cc(OC)c2oc1=O,60,98,i,1.1,2,99,nt
O=C(/C(=C/c1ccccc1Cl)c1ccccc1)N1CCOCC1,33,71,nt,nt,0,105,-1.8
CCOc1ccc(S(=O)(=O)N(C)c2ccc(OCC(=O)Nc3nc4ccccc4s3)cc2)cc1,nt,nt,i,0.91,11,104,0.1
CC1CCCC(NC(=O)CN2CCN(Cc3ccc(Cl)cc3)C2=O)C1C (configuration not stated),34,144,i,0.87,-7,97,-1.2
O=C(c1ccccc1)N(CCO)Cc1cc2cc3c(cc2[nH]c1=O)OCCO3,nt,nt,i,0.92,0,96,nt
COc1ccccc1/C=C/C=N/NC(=O)c1cc(-c2ccco2)[nH]n1,nt,nt,i,1.1,nt,94,nt
O=C1c2[nH]nc(-c3ccccc3O)c2C(c2ccc(F)cc2)N1Cc1ccco1 (configuration not stated),7,42,i,0.68,5,-226,-1.6
COc1ccccc1NC(=O)Cn1c(CCC(=O)O)ccc1-c1ccccc1,nt,nt,i,0.91,-6,102,nt
COCCSc1nnc(-c2cnccn2)o1,nt,nt,i,0.99,-16,102,-2.1
Cc1cccc(N(CC(=O)Nc2ccc(CC#N)cc2)S(C)(=O)=O)c1,19,86,nt,nt,-9,99,-2.4
Cc1cc(NS(=O)(=O)c2ccc(NC(=S)NC(=O)c3ccc(F)cc3Cl)cc2)no1,-51,105,i,0.97,-16,84,-1.0
CCC(C)NS(=O)(=O)c1ccc(OCC(=O)Nc2ccc3c(c2)OCCO3)cc1 (configuration not stated),34,44,i,0.78,-3,110,-1.8
Cn1c(CN2CCCCC2)nc2cc(NC(=O)c3cccc(Br)c3)ccc21,-30,62,i,0.64,0,105,-2.4
Cc1ccc(C)c(NC(=O)c2ccccc2C(=O)c2ccccc2)c1,nt,nt,i,0.9,-1,99,nt
CCOc1cc(C(=O)OCC(=O)NC(C)c2ccccc2)ccc1OCC(=O)N1CCOCC1 (configuration not stated),17,86,i,0.98,0,99,nt
O=C(NCc1nc2ccccc2[nH]1)C1=C[C@H](c2ccc(C(F)(F)F)cc2)C[C@H](OCc2ccc(CO)cc2)O1,nt,nt,i,0.81,8,97,nt
CCc1ccc2c(CC(=O)Nc3nnc(C4CC4)s3)coc2c1,3,89,i,1,1,102,-1.4
CC1=CC(C)(C)Nc2ccc(C)cc21,nt,nt,i,0.89,6,97,0.1
c1ccc(-c2nnc(CSc3nncs3)o2)cc1,14,13,i,1,8,102,-1.2
Cc1nccn1CCCN1C(=O)OC2(CCCCC2)C1(C)O (configuration not stated),-61,62,i,0.92,-2,112,-0.5
Cn1nnc(NC(=O)c2ccc([N+](=O)[O-])cc2Cl)n1,-40,88,i,0.99,-2,105,nt
# More records.
SMILES,INS promoter inh,INS promoter inh cell count,HSV augment,HSV augment primary fold,PKD1 kinase inh,RGS16-Gao,GALR2 agonist
CCC(C)(C)C1CCc2c(sc(NC(=O)c3ccoc3C)c2C(N)=O)C1 (configuration not stated),-157,138,nt,nt,-4,105,-1.5
Cc1ccc(CC(=O)OCCNC(=O)c2cccnc2)cc1,38,59,i,0.95,6,130,-3.1
CC(C)c1ccc(NC(=O)COC(=O)COc2ccccc2)cc1,nt,nt,i,0.86,2,103,0.1
CC(C)c1cc(CNC(=O)CC2C(=O)NCCN2CC2CCCCC2)on1 (configuration not stated),nt,nt,i,0.95,-1,97,nt
Cc1csc(=O)n1CC(=O)OCc1cccc2ccccc12,nt,nt,i,0.95,-6,98,-0.5
O=C(c1ccccc1)N1CCN(S(=O)(=O)c2cccc(NS(=O)(=O)c3ccccc3)c2)CC1,nt,nt,i,1.1,-4,97,nt
O=C1/C(=C/c2cccs2)CCC1C1CCCC1 (configuration not stated),27,93,i,0.95,-1,106,nt
COc1ccccc1NC(=O)C1=C(C)N(c2ccccc2)C(=S)NC1c1cccc(C(F)(F)F)c1 (configuration not stated),-19,80,i,0.64,-2,104,-1.4
CCCC/S(CC1CC1(Cl)Cl)=N\S(=O)(=O)c1ccc(C)cc1 (configuration not stated),-47,113,i,1.2,5,49,1.1
CCc1ccc(-c2cc(C(=O)N/N=C/c3ccco3)[nH]n2)cc1,0,83,i,0.94,-2,105,nt
C=CCn1c(SCC2CCCCO2)nc2sc(CC)cc2c1=O (configuration not stated),nt,nt,i,0.95,nt,89,nt
S=C(NNc1nc(Nc2ccccc2)nc(N2CCCCC2)n1)NC1CCCCC1,-44,118,i,0.95,-5,108,nt
CCOC(=O)N1CCC(N2Cc3cccc(C(=O)NCc4ccc(OC)cc4)c3C2=O)CC1,17,137,i,0.87,-7,99,0.3
CCOC(=O)C(=O)Nc1ccccc1C(N)=O,-44,104,i,1,0,nt,-0.4
COc1cc(NC(=O)N[C@H](C(=O)O)C(C)C)cc(OC)c1,nt,nt,i,1.2,-4,112,-1.4
CCOC(=O)CNS(=O)(=O)c1ccc(C(=O)O)cc1,nt,nt,i,0.85,-11,85,-3.1
Cc1ccc(S(=O)(=O)N2CCN(S(C)(=O)=O)CC2)cc1,38,107,i,1,-5,nt,-1.3
COc1ccc(CCNC(=O)Cn2c(=O)n(CC3CCCO3)c(=O)c3cc(OC)c(OC)cc32)cc1OC (configuration not stated),nt,nt,i,1,-5,101,nt
COc1ccc(-c2noc(-c3cc(Cl)ccc3Cl)n2)cc1OC,15,77,i,0.9,-7,83,-2.4
COc1ccccc1Cn1cnc2cccnc21,nt,nt,i,0.94,-5,94,-1.5
CC1(C)CC(=O)c2cnc(N3CCc4ccccc43)nc2C1,nt,nt,i,1.1,nt,103,nt
COC(=O)c1cccc(C(=O)Oc2cccc(Br)c2)n1,25,89,i,0.96,-1,87,-0.3
CCCOc1ccc(N2CC(C(=O)Nc3ncccc3C)CC2=O)cc1 (configuration not stated),12,87,i,1,-2,102,-1.9
CSc1ncccc1C(=O)OCC(=O)N1CCOCC1,18,146,i,1,-8,101,-1.3
COc1ccccc1CNC(=O)CC(C)C,51,48,i,0.93,-13,91,-2.4

# In another format: entries from further up.
> COc1ccccc1NC(=O)C1=C(C)N(c2ccccc2)C(=S)NC1c1cccc(C(F)(F)F)c1 (configuration not stated)
  INS promoter inh = -19
  INS promoter inh cell count = 80
  HSV augment = i
  HSV augment primary fold = 0.64
  PKD1 kinase inh = -2
  RGS16-Gao = 104
  GALR2 agonist = -1.4

> CCCC/S(CC1CC1(Cl)Cl)=N\S(=O)(=O)c1ccc(C)cc1 (configuration not stated)
  INS promoter inh = -47
  INS promoter inh cell count = 113
  HSV augment = i
  HSV augment primary fold = 1.2
  PKD1 kinase inh = 5
  RGS16-Gao = 49
  GALR2 agonist = 1.1

> CCc1ccc(-c2cc(C(=O)N/N=C/c3ccco3)[nH]n2)cc1
  INS promoter inh = 0
  INS promoter inh cell count = 83
  HSV augment = i
  HSV augment primary fold = 0.94
  PKD1 kinase inh = -2
  RGS16-Gao = 105
  GALR2 agonist = nt

> C=CCn1c(SCC2CCCCO2)nc2sc(CC)cc2c1=O (configuration not stated)
  INS promoter inh = nt
  INS promoter inh cell count = nt
  HSV augment = i
  HSV augment primary fold = 0.95
  PKD1 kinase inh = nt
  RGS16-Gao = 89
  GALR2 agonist = nt

# Next results follow:
SMILES,INS promoter inh,INS promoter inh cell count,HSV augment,HSV augment primary fold,PKD1 kinase inh,RGS16-Gao,GALR2 agonist
COc1ccc(CC(=O)Nc2ccc(C(=O)O)cc2NC(=O)Cc2ccc(OC)cc2)cc1,nt,nt,i,1,-3,110,nt
CCSc1nc(N2CCCCC2)c2c(c1C#N)CCCC2,-23,63,i,0.9,-2,98,-1.9
O=C(Nc1ccccc1C(F)(F)F)c1ccccn1,-19,105,i,0.92,-1,104,nt
CC(C)(C)c1cc(OC(=O)c2ccncc2)ccc1O,50,111,i,0.93,-1,103,-2.9
O=C(CCCSc1nc2ccccc2s1)NCc1ccc2c(c1)OCO2,25,213,i,1.1,-3,104,-1.7
Cc1ccc(C(=O)NCCc2nnc3ccc(SCC(=O)Nc4ccc(C)cc4C)nn23)cc1,nt,nt,i,1.1,-7,104,-1.4
Cc1ccc(NC(=O)C2CCCN(S(=O)(=O)c3c(C)noc3C)C2)cc1F (configuration not stated),nt,nt,i,1,-11,114,-0.5
COc1cc(/C=N/NC(=O)c2ccc(CSc3nncn3C)cc2)ccc1OCC(=O)N1CC(C)OC(C)C1 (configuration not stated),36,160,i,0.91,4,121,nt
CCN1C(=O)c2cccc3c(NC(=O)c4ccc5c(c4)OCCO5)ccc1c23,nt,nt,i,1.3,-4,60,-1.8
Cc1c(-c2ccccc2)n[nH]c1C(=O)N=Nc1c(O)[nH]c2ccccc12,-50,104,i,0.94,2,99,nt
CCc1ccc(OCC(=O)NC(=S)Nc2ccc(C)cc2C)c(Br)c1,nt,nt,i,0.98,1,101,-0.7
C=CCOC(=O)C1=C[C@@H](c2coc3ccccc3c2=O)[C@H](CCCO)[C@@H](OCC)O1,nt,nt,i,1,13,101,nt
CCCCNS(=O)(=O)c1ccc(OCC(=O)OC)cc1,-8,72,i,1,-16,104,-1.0
COC(=O)CC(=O)Cc1nc(N)nc(Nc2ccc(C)c(C)c2)n1,nt,nt,i,0.87,-9,98,-1.8
Cc1cccc([N+](=O)[O-])c1NC(=O)CN(Cc1ccccc1)Cc1ccccc1,17,86,i,1,-3,95,-0.7
CC(C)(C)c1ccc(/C=C/C(=O)N2CCOCC2)cc1,-77,114,i,0.87,0,101,-1.2
COc1ccc(OC)c(Nc2nc(N)nc(CSc3nnc(-c4ccncc4)o3)n2)c1,18,96,nt,nt,-8,106,-3.6
Cc1ccc(-n2nc3c([n+]2[O-])CCc2nonc2-3)cc1,nt,nt,i,0.89,1,104,nt
COc1ccc(N2C(=O)c3ccccc3NC2(C)C)cc1,-7,93,i,0.92,0,49,nt
CCOC(=O)c1c(-c2ccccc2)[nH]c2ccc(O)cc12,39,116,i,0.89,-3,111,-0.2
O=S(=O)(NCC(c1ccco1)N1CCN(c2ccccc2F)CC1)c1ccc2c(c1)OCCO2 (configuration not stated),nt,nt,i,1.1,-5,101,-0.2

# Some of these compounds in order of molar mass, rising.
SMILES,INS promoter inh,INS promoter inh cell count,HSV augment,HSV augment primary fold,PKD1 kinase inh,RGS16-Gao,GALR2 agonist
CC(C)(C)c1cc(OC(=O)c2ccncc2)ccc1O,50,111,i,0.93,-1,103,-2.9
CC(C)(C)c1ccc(/C=C/C(=O)N2CCOCC2)cc1,-77,114,i,0.87,0,101,-1.2
C=CCOC(=O)C1=C[C@@H](c2coc3ccccc3c2=O)[C@H](CCCO)[C@@H](OCC)O1,nt,nt,i,1,13,101,nt
